FGF22 binding: shifts melting point of recombinant human FGF22; Q9HCT0; recombinant FGF22 thermal shift, SYPRO orange fluorescence; percent of sucrose octasulfate shift, DMSO zero; calls only at 9.99 µM; 1.5% of 340,000 active;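 active = melting point raised past a set limit in the mean and every replicate; three in four hits are not shown here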
Target sequence (Q9HCT0 whole entry, looked up): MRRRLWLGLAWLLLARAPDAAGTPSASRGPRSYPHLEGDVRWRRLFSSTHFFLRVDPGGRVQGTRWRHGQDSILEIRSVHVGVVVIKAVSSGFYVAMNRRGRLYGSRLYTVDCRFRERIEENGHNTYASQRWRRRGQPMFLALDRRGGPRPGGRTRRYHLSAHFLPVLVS
HNF4A DNA FP: change in binding of human HNF4 alpha to DNA. P41235. HNF4a-FITC DNA binding, fluorescence polarization, 1 h. activity change, % at 10 µM. 0.3% of 360,000 active. AID 1224865; in the data active = activity change above about 30%, passing the limit was not always enough;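 note: controls were the assay level and a saturating level of protein; the project sought stronger binding though the title names inhibitors; some compounds called inactive have numbers as strong as hits; positive values seem to mean higher polarization but the record does not say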
UCH37 DUB inh: blocks the human deubiquitinase UCH37 | Q9Y5K5 | purified proteasome/UCH37, Ub-AMC cleavage fluorescence | inhibition, % (concentration not given with the values) | 0.33% of 330,000 active;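 active = mean of two replicates above 20%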;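 note: 0% = compound-free wells with enzyme and 100% = wells lacking proteasome; stock transfer was 100 nL into about 20 µL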
Target sequence (Q9Y5K5 whole entry, looked up): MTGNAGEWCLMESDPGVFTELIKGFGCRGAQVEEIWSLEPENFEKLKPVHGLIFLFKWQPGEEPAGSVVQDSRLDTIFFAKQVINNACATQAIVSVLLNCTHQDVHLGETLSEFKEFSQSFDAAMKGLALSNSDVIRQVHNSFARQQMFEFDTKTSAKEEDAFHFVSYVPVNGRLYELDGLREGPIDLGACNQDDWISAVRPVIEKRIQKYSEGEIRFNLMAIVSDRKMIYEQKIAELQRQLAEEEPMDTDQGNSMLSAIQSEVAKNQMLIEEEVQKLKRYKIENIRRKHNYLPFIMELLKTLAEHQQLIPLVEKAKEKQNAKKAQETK
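Assay system: Proteasome-bound UCH37. Buffer or medium: pH 7.4 Tris-HCl (50 mM) with ovalbumin, ATP-MgCl2, DTT. Incubation: 30 min preincubation with enzyme, 25 min cleavage at room temperature. Measured by: fluorescence, ex 355 nm, em 460 nm. Read-out basis: percent inhibition. Control set: wells without proteasome as full block, compound-free enzyme plus substrate as uninhibited.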
ALR H2O2 inh: inhibitors of human sulfhydryl oxidase ALR; P55789; purified ALR, DTT oxidation, H2O2 HRP-luminol luminescence; inhibition, % (no concentration beside the values); 3.8% of 290,000 active; AID 485317;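 active = mean and each replicate at 75% or more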;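 note: stock transfer was 7.5 nL into about 7.5 µL; 0% = neutral wells and 100% = wells with inactivated enzyme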
Beta2AR agonist: activates human beta-2 adrenergic receptor causing internalization | 0.43% of 340,000 active | response, % (concentration not given with the values) | P07550 | AID 504454 | Am2.2-beta2AR cells, FAP receptor internalization, flow cytometry; reference of the scale not given here;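 active = response above a set limit, near 3 SD of response in nonfluorescent compounds, cut at about 42% in these data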;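 note: stock transfer was 100 nL into about 11 µL; a reference agonist was the positive control; negative values mostly stem from fluorescent compounds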
Target sequence (P07550 whole entry, looked up): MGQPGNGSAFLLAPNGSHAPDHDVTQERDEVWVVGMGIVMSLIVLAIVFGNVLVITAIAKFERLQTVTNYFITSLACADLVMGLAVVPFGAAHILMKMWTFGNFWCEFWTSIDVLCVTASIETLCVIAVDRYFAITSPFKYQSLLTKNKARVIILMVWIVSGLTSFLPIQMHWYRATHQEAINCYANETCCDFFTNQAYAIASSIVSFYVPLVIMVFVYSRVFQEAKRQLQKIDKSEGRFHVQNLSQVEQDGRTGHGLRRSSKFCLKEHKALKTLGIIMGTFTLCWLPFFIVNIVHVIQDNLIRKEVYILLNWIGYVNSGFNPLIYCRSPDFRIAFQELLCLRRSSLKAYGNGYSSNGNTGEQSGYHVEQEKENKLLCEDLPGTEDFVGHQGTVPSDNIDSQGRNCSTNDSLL
LANA-H2B inh: blocks KSHV LANA binding to histone H2A/H2B; inhibition, % (no concentration beside the values); 0.6% of 320,000 active; Q9QR71; cell-free LANA-H2A/H2B peptide, fluorescence polarization; in the data active = inhibition mostly above about 10%, no sharp cut-off; inactive = mostly below about 6.7%;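 note: stock transfer was 7.5 nL into about 10 µL; 0% = median of vehicle wells and 100% = median of positive control wells; one replicate is shown; the record names a cut of 25% in any replicate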
E coli growth: inhibitors of Escherichia coli growth; 0.21% of 330,000 active; OD600, 23 h; active compounds read low; AID 1053175; OD600 absorbance (no concentration beside the values);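 active = OD600 absorbance below the run mean of sample wells minus 3.6 SD, in any replicate, cut at about 0.56 in these data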;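 note: stock transfer was 300 nL into about 60 µL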
An asterisk follows results filed as active; i = inactive; / = no result given.

SMILES | FGF22 binding | HNF4A DNA FP | UCH37 DUB inh | ALR H2O2 inh | Beta2AR agonist | LANA-H2B inh | E coli growth
CC(NC(=O)COC(=O)C1CCCCC1)c1ccccc1 (stereo unspecified) | i | 1.6 | 1.6 | / | -4 | / | 0.65
CCCS(=O)(=O)Nc1cccc(-c2ccc3nnc(C)n3n2)c1 | i | 3.4 | 0.7 | -5 | -6 | -3.0 | 0.71
O=C(NCCNCc1ccccc1)c1ccco1 | i | 3.7 | / | / | 4 | / | /
Cc1ccccc1N1CCN(CCCOc2ccc3c(C)cc(=O)oc3c2)CC1 | / | 0.4 | -21 | -1 | 11 | -0.9 | 0.69
CC1(C)Cc2ccccc2C(NNC(=O)c2ccccn2)=N1 | / | -4.1 | 0.7 | 10 | 27 | -3.6 | 0.68
COc1ccc(-c2cc(C(=O)Nc3nc4c(C)cccc4s3)c3ccccc3n2)cc1OC | / | 2.2 | -154 | / | 2 | / | 0.74
O=[N+]([O-])c1ccccc1OCC(O)CNC1CCCC1 (stereo unspecified) | i | -1.8 | 4.5 | -3 | -13 | 6.8 | 0.72
CC(C)N(C(=O)COC(=O)c1ccccc1C(=O)N1CCN(c2ccc(F)cc2)CC1)C(C)C | / | 1.6 | 0.7 | 7 | -5 | 2.7 | 0.7
COc1cccc2sc(NNC(=O)COc3ccccc3)nc12 | i | 4.0 | 0.7 | / | 21 | 4.3 | 0.73
CC12CCC(C(=O)N3CCC(Cc4ccccc4)CC3)(C(=O)C1=O)C2(C)C (stereo unspecified) | i | -1.7 | 2.4 | / | 12 | -3.5 | 0.73
O=C(NNC1CC(=O)N(c2cccc(Cl)c2)C1=O)c1cccnc1 (stereo unspecified) | / | -1.1 | -0.3 | 12 | 6 | 0.1 | 0.66
CCSc1nc(-c2ccccc2)nc2c1CCCC2 | i | 0.8 | 0.5 | -1 | -3 | -0.5 | 0.66
CC(C)c1ccc(S(=O)(=O)N2CCN(C(=O)C3CCCC3)CC2)cc1 | i | -5.0 | 0.1 | -10 | -12 | 1.5 | 0.72
O=C(COC(=O)CNC(=O)c1ccc(Cl)cc1)Nc1cccc(S(=O)(=O)N2CCCC2)c1 | i | 0.6 | 1.7 | -7 | -7 | -2.6 | 0.62
Cc1c(-c2ccccc2)[n+](=O)c2c(n1[O-])CCCCC2 | / | -0.2 | 5.4 | -1 | -1 | 4.0 | 0.66
CC(C)C12CN3CC(C(C)C)(CN(C1)C3c1ccc([N+](=O)[O-])o1)C2=O (stereo unspecified) | / | 2.7 | 4.8 | / | 6 | 1.6 | 0.63
S=C(N/N=C/c1ccccc1Cl)Nc1ccccc1 | / | 1.4 | / | -8 | 0 | -2.2 | /
CC1(C)CC(=O)C2=C(C1)N=C1SCCC(=O)N1C2c1ccccc1 (stereo unspecified) | i | 2.4 | 1.9 | 1 | -17 | 0.2 | 0.67
O=C(NCCCc1ccncc1)C1CCC(=O)N(CCc2cccc(F)c2)C1 (stereo unspecified) | i | 4.7 | -0.2 | -4 | 1 | 2.6 | 0.67
CC(CNC(=O)c1cccs1)c1ccc([N+](=O)[O-])cc1 (stereo unspecified) | i | -26 | 4.5 | -9 | -9 | 0.8 | 0.66
O=C(Nc1ccc(C(=O)N2CCCCC2)cc1)c1ccccc1 | i | 0.8 | / | / | 1 | / | /
COc1cc2c(C)nc3c(c(C)nn3-c3ccccc3)c2cc1OC | i | -2.8 | -51 | / | 1 | 2.8 | 0.7
CCCC(=O)Nc1ccc(NC(=O)c2ccccc2Cl)nc1 | / | 2.3 | 2.5 | -1 | -8 | -1.1 | 0.72
Cc1cc(C)nc(Sc2nc(C)nc3c2oc2ccccc23)n1 | / | -2.7 | 4.8 | -3 | -8 | -4.6 | 0.78
Cc1ccsc1C(=O)Nc1ccc2c(c1)OCCO2 | / | 0.5 | 0.9 | -4 | -24 | -0.7 | 0.65
CCOc1ccc2[nH]c3nc(SCC(=O)OC(C)C)nnc3c2c1 | i | 0.6 | 3.8 | 2 | 7 | 1.1 | 0.69
COc1ccc(Cl)cc1-c1nc(SCC(=O)NC2CCS(=O)(=O)C2)n[nH]1 (stereo unspecified) | i | 2.5 | 3.5 | -1 | -11 | 0.2 | 0.67
CSc1nnc(CNS(=O)(=O)c2ccc(F)cc2)n1C | i | 1.5 | 4.5 | -2 | -3 | -6.0 | 0.66
O=C(Cn1nnc(-c2ccccc2)n1)OC1CCOC1=O (stereo unspecified) | / | -1.2 | 0.0 | 0 | 2 | -4.4 | 0.75
CC(C)n1c(=O)c2c(O)cc(=O)oc2c2ccccc21 | / | 3.5 | -18 | -2 | 4 | 1.2 | 0.72
O=C(OCc1nnc(-c2ccc(Br)cc2)o1)c1ccco1 | i | 0.7 | 3.0 | -7 | 2 | 2.3 | 0.71
CCOC(=O)C1(S(=O)(=O)c2ccc(Cl)cc2)CCN(Cc2ccccc2)CC1 | / | 0.6 | 1.0 | -2 | -6 | -5.2 | 0.7
COCCNC(=O)Nc1ccc2c(c1)N(C)C(=O)CS2 | / | -2.9 | 1.7 | -17 | 0 | 1.3 | 0.66
CCCCNC(=S)Nc1cc([N+](=O)[O-])ccc1C | / | 1.0 | 2.0 | 17 | -3 | 0.7 | 0.68
CCCc1ccc(-c2c(C)sc(NC(=O)c3ccnn3C)c2C#N)cc1 | / | 0.9 | -20 | -4 | -13 | -0.2 | 0.77
CCN1CCN(C(=O)Nc2cccc(C(F)(F)F)c2)CC1 | / | 5.9 | -0.7 | 12 | -14 | 0.3 | 0.67
COC(=O)c1ccc(Sc2nnnn2-c2ccccc2)c([N+](=O)[O-])c1 | / | -1.0 | 2.9 | 21 | 1 | 1.3 | 0.74
COc1ccc(CCNS(=O)(=O)c2cccs2)cc1 | / | -3.5 | 1.1 | -11 | -7 | -0.5 | 0.72
COc1cc(NC(=O)CSc2nnc3ccccn23)cc(OC)c1 | i | 1.8 | 0.1 | -9 | -5 | -1.2 | 0.71
O=C1S/C(=C\c2ccc(O)c([N+](=O)[O-])c2)C(=O)N1c1ccccc1Cl | i | -2.1 | / | / | 16 | 6.3 | /
COc1ccccc1/C=C/C(=O)OCC(=O)NC(=O)NC1CCCC1 | i | 0.9 | -27 | -2 | -3 | 1.0 | 0.64
NC(=O)c1ccsc1NC(=O)c1ccc(S(=O)(=O)N2CCCc3ccccc32)cc1 | i | 2.5 | / | 3 | 13 | -1.9 | /
CC1C(=O)NC(=O)C1c1ccccc1 (stereo unspecified) | i | 3.1 | 4.6 | -1 | -1 | -3.0 | 0.65
Cc1cc(C)c(NC(=S)NC(=O)c2c(Cl)c(C)nn2C)c([N+](=O)[O-])c1 | / | -0.6 | 3.5 | -5 | 3 | -2.8 | 0.66
CC1CC(C)CN(S(=O)(=O)c2ccc3oc(=O)ccc3c2)C1 (stereo unspecified) | i | -2.2 | -1.0 | -2 | -12 | 4.1 | 0.67
Cn1cnnc1SCC(=O)NC1CCCc2ccccc21 (stereo unspecified) | i | 3.8 | 4.0 | -8 | 4 | 3.1 | 0.71
COc1ccc(OC)c(C2C(C(=O)c3cc4ccccc4o3)=C(O)C(=O)N2c2cc(C)on2)c1 (stereo unspecified) | / | -1.7 | -0.3 | -2 | -1 | 1.0 | 0.71
CCn1c(CCNC(=O)c2ccc(F)cc2)nc2ccccc21 | i | 0.9 | -0.3 | / | 0 | 5.7 | 0.77
O=C(OCn1cncn1)c1ccc(Cl)cc1Cl | / | 2.8 | 1.0 | 2 | -1 | -10.0 | 0.7
CCN(CC(=O)Nc1ccc2c(c1)OCCO2)C(=O)CSCC(=O)Nc1ccc(C)cc1 | i | -2.6 | 2.7 | -2 | -6 | -0.7 | 0.69
The listing continues:
SMILES | FGF22 binding | HNF4A DNA FP | UCH37 DUB inh | ALR H2O2 inh | Beta2AR agonist | LANA-H2B inh | E coli growth
CSc1ncccc1C(=O)OCC(=O)c1ccc(C)s1 | i | 5.0 | -3.5 | -1 | 3 | -7.1 | 0.68
CC(=O)NC(Cc1ccccc1C)C(=O)NC1CCN(c2ncccc2[N+](=O)[O-])CC1 (stereo unspecified) | i | / | 5.5 | / | / | / | 0.66
CC1=CC(=C(C#N)c2nc3ccccc3s2)C=C(C)N1c1ccc(F)cc1 | i | -64 | 4.4 | -6 | 3 | 0.0 | 0.74
CSCC[C@H](NS(=O)(=O)c1ccc(C)cc1)C(=O)N1CCC(C(=O)N[C@H](C(=O)O)c2ccccc2)CC1 | i | 0.3 | -0.1 | -2 | 2 | 5.2 | 0.71
CCNc1nc(Oc2ccc(OC)cc2)cc(C(F)(F)F)n1 | i | -1.0 | 2.9 | 3 | 7 | -4.1 | 0.65
O=C(NCCCCc1ccccc1)c1cc([N+](=O)[O-])cc([N+](=O)[O-])c1 | i | 1.6 | / | -3 | 10 | 0.5 | /
Cc1cc(-c2ccc(C)c(S(=O)(=O)N3CC(=O)Nc4ccccc43)c2)on1 | i | 0.6 | 1.0 | -3 | 5 | -5.6 | 0.72
O=C(Nc1ccc2ccccc2c1)c1ccc(Br)o1 | i | 3.4 | 0.7 | -12 | 0 | -1.4 | 0.67
COCCC(=O)Nc1c(-c2ccccc2)c2cc(Br)ccc2[nH]c1=O | i | 1.0 | 3.2 | 0 | 1 | 4.7 | 0.68
COC(=O)c1ccc(CN2CCCCC2)cc1 | i | 0.1 | 4.8 | / | 7 | -2.2 | 0.68

Part of the list above, with values under each structure:
The line under a structure holds: FGF22 binding	HNF4A DNA FP	UCH37 DUB inh	ALR H2O2 inh	Beta2AR agonist	LANA-H2B inh	E coli growth
- CSCC[C@H](NS(=O)(=O)c1ccc(C)cc1)C(=O)N1CCC(C(=O)N[C@H](C(=O)O)c2ccccc2)CC1
  i	0.3	-0.1	-2	2	5.2	0.71
- COC(=O)c1ccc(CN2CCCCC2)cc1
  i	0.1	4.8	/	7	-2.2	0.68
- Cc1cc(-c2ccc(C)c(S(=O)(=O)N3CC(=O)Nc4ccccc43)c2)on1
  i	0.6	1.0	-3	5	-5.6	0.72
- CSc1ncccc1C(=O)OCC(=O)c1ccc(C)s1
  i	5.0	-3.5	-1	3	-7.1	0.68
- O=C(Nc1ccc2ccccc2c1)c1ccc(Br)o1
  i	3.4	0.7	-12	0	-1.4	0.67

Further results follow.
SMILES | FGF22 binding | HNF4A DNA FP | UCH37 DUB inh | ALR H2O2 inh | Beta2AR agonist | LANA-H2B inh | E coli growth
CCOC(=O)N1CCN(C(=O)CSCC(=O)Nc2nc(-c3ccc4c(c3)OCO4)cs2)CC1 | / | 1.6 | -1.1 | 99* | 1 | -6.3 | 0.7
Oc1c(CN2CCOCC2)cc(CN2CCOCC2)c(O)c1CN1CCOCC1 | i | -1.2 | 4.5 | / | -5 | / | 0.72
O=C(COc1ncnc2sccc12)Nc1ccc2c(c1)OCCO2 | / | 6.6 | 1.4 | -10 | -7 | -0.9 | 0.71
NC1=NC(=Nc2cccc(S(=O)(=O)N3CCOCC3)c2)c2ccccc21 | i | -1.4 | 12 | -5 | -2 | -12 | 0.65
CCOC(=O)c1c(-c2ccccc2Cl)csc1NC(=O)CSc1nc(C)cc(=O)[nH]1 | i | 0.4 | 5.3 | -1 | 9 | 7.8 | 0.69
Cc1cc(C)cc(-n2ncc3c2CCCC3NC(=O)CCCn2cncn2)c1 (stereo unspecified) | i | 2.1 | 1.2 | -4 | -12 | 5.1 | 0.68
COc1cc(-c2ccc3oc(-c4ccsc4)cc(=O)c3c2)cc(OC)c1OC | i | 0.4 | 4.0 | -1 | 12 | 0.1 | 0.7
Cc1cc(C(=O)Nc2cccc(S(=O)(=O)N3CCCC3)c2)c2ccccc2n1 | i | 7.9 | 1.4 | / | 4 | / | 0.67
COc1cc(C2CC(=O)Oc3cc(O)ccc32)cc(OC)c1OC (stereo unspecified) | i | -1.2 | 0.7 | / | 3 | / | 0.71
COc1ccc(CN2CCCC(C(=O)N(C)Cc3ccccc3)C2)cc1OC (stereo unspecified) | / | -8.1 | 2.2 | 5 | 3 | -16 | 0.65
Cc1nnc(SCC(N)=O)n1CCc1ccccc1 | / | 4.2 | 3.4 | -20 | -2 | 0.6 | 0.69

Source: PubChem BioAssay

Some of the compounds tested, so the mix of outcomes need not match the whole.
